High-throughput results deposited in PubChem BioAssay by Fisher Drug Discovery Resource Center.
NPYLR7 agonist – activates Aedes aegypti NPYLR7 receptor; 270,000 compounds, 0.15% hits; HEK293T NPYLR7/Galpha15, GCaMP6s calcium fluorescence; activation, % at 10 µM; AID 1259423; in the data active = activation above about 40%;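 also: 0% = vehicle and 100% = reference agonist at the receptor; some compounds past the cut are filed as inactive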
NPYLR7 agonist max-min – further read-out of NPYLR7 agonist, marked with its call; activation, %; measured here: Max-Min RFU normalised activation; some inactives read as strong as hits;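 span of the calcium signal over five minutes; 0% = vehicle and 100% = native peptide agonist; compound fluorescence can raise it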
Numbers without * were called inactive.

Sequence of screens – NPYLR7 agonist	NPYLR7 agonist max-min
- S=C(NCC1CCCO1)N1CCc2ccccc2C1 (stereo not drawn)
  1	6
- Oc1ccc2ccccc2c1C=NCc1nnc2ccccn12
  -6	-7
- Cc1noc(C)c1C(=O)N[C@H]1CCC[C@@H]1OCc1ccccc1
  -8	-19
- CCc1nc2ccc(C(=O)NCC3CCCCC3)cn2c1N(C)C(=O)c1cccc(OC)c1
  10	14
- Cc1ccc(Cn2ncc3c(N4CCN(C5CCCC5)CC4)ncnc32)cc1
  -3	1
- CCOC(=NCCCN1CCOCC1)NC(=O)c1cccc(C(F)(F)F)c1
  -6	-5
- O=c1cc(CN2CCc3ccccc32)occ1OCc1ccc(Cl)cc1
  -2	26
- Oc1cccc(-c2nccn2CCCCc2ccccn2)c1
  9	2
- Oc1ccc(/C=N\Nc2cc(N3CCOCC3)nc(N3CCOCC3)n2)cc1
  -4	-8
- COc1ccc(Br)cc1S(=O)(=O)NCc1ccc(N2CCOCC2)nc1
  3	0
- CC(=O)Nc1cccc(C(=O)N(Cc2nccn2C)C(C)C)c1
  -3	-4
- Cc1ccc(C)c(-n2cc[nH]c2=S)c1
  -2	-7
- Cc1c(C(=O)N2CCCC2c2ccccc2)nnn1-c1ccc(F)cc1 (stereo not drawn)
  16	11
- CSc1nc(C(=O)N2CCc3c(cc(-c4cccc(Cl)c4)c(=O)n3CC3CC3)C2)cs1
  6	-8
- CC(=O)Nc1nc(N)n(-c2ccccc2)n1
  4	3
- Cc1cccc(C2=N/C(=C\c3ccc(N(C)C)cc3)C(=O)O2)c1
  19	7
- O=C(CSc1ncnc2c1nnn2Cc1ccc(F)cc1)NC1CCCCC1
  18	19
- CCCC(=O)OCC(O)CN(Cc1cccc(OC)c1)Cc1ccco1 (stereo not drawn)
  -4	-1
- COCCNC(=O)c1ccc(OC2CCN(C3CCc4ccccc4C3)CC2)c(Cl)c1 (stereo not drawn)
  14	0
- O=C(CCc1c[nH]c2ccccc12)OCC(=O)c1ccc([N+](=O)[O-])cc1
  -2	-3

Reformatted: results already given.
smiles	NPYLR7 agonist	NPYLR7 agonist max-min
CCOC(=NCCCN1CCOCC1)NC(=O)c1cccc(C(F)(F)F)c1	-6	-5
O=c1cc(CN2CCc3ccccc32)occ1OCc1ccc(Cl)cc1	-2	26
Oc1cccc(-c2nccn2CCCCc2ccccn2)c1	9	2

Further records:
Sequence of screens – NPYLR7 agonist	NPYLR7 agonist max-min
- Cc1ccc(-c2noc(CN3CCN(C(=O)c4ccc(C)o4)CC3)n2)cc1
  -4	-4
- COc1ccc(CCN(Cc2cccs2)C(=O)CN(C(=O)Nc2ccc(C(F)(F)F)cc2)C2CC2)cc1OC
  -8	-16
- COc1ccccc1Oc1ncccc1CNC(=O)C1(C)CC(C)=NO1 (stereo not drawn)
  2	1
- O=C(O)c1cc(C(=O)O)c(C(=O)O)nc1C(=O)O
  -3	-5
- N#Cc1cccc(CN2C(=O)C3(SCCN3C(=O)c3ccccc3F)c3cc(F)ccc32)c1 (stereo not drawn)
  15	21
- CC(=O)N1CCN(c2ccc([N+](=O)[O-])cc2)C(=O)C1C (stereo not drawn)
  -1	0
- Cc1cccc(OCC(O)CN(C(=O)NCc2nnc3n2CCC3)C(C)C)c1 (stereo not drawn)
  4	1
- Cc1nc2n(n1)C(=O)C(C(c1cccs1)N1CCN(CCO)CC1)S2 (stereo not drawn)
  5	3
- O=C(c1cn(Cc2ccc(F)cc2Cl)nn1)N1CCOc2ccc(Cl)cc2C1
  16	3
- C=CCn1c(SCC(=O)Nc2ccc3c(c2)OCO3)nnc1-c1ccco1
  9	3
- O=C(NCC1CCCO1)c1nn(-c2ccc(F)cc2)c(=O)n(Cc2ccccc2Cl)c1=O (stereo not drawn)
  5	11
- O=[N+]([O-])c1ccc(-c2nc3c(n2O)CCC/C3=N/O)cc1
  1	0
- COc1ccc(S(=O)(=O)NCCCCN2CCOC(c3ccccc3)C2)c(C)c1 (stereo not drawn)
  -7	-10
- CC(C)N(CC(=O)N(CCc1c[nH]c2ccccc12)Cc1ccc(N(C)C)cc1)C(=O)c1ccccc1F
  8	8
- N#C/C(=C/c1cccc(NC(=O)c2ccc(Cl)cc2)c1)c1ccccn1
  2	1
- COc1cc(C(C2Sc3nc(C)nn3C2=O)N2CCN(CCO)CC2)cc(OC)c1OC (stereo not drawn)
  1	-1
- Cn1c(CN2CCCC(OCc3ccccn3)C2)cc2cc(F)ccc21 (stereo not drawn)
  -4	-4
- CCOC(=O)C1(C)CCCCCN1C(=O)c1sccc1C (stereo not drawn)
  1	-3
- COc1ccc(C(=O)Nc2ccc(N3CCC(Cc4ccccc4)CC3)c(C(=O)NCC3CCCO3)c2)cc1 (stereo not drawn)
  16	19
- CC(=O)N1CCN(c2ncnc3c2nnn3Cc2ccccc2)CC1
  0	-6

(more compounds)
Sequence of screens – NPYLR7 agonist	NPYLR7 agonist max-min
- CCN(CCn1cccn1)C(=O)c1[nH]c2ccc(C)cc2c1C
  -3	-4
- CCOc1ccc(-c2ccc(=O)n(CCNC(=O)c3ccc(C(C)(C)C)cc3)n2)cc1
  4	2
- COc1cccc(O)c1CN(Cc1ccncc1)Cc1ccc(F)cc1
  12	1
- O=C(NC1CCCC1)c1noc2c1CCCCC2
  -11	-11
- Cn1cnnc1Sc1ccc(CN2CCCC(CO)(Cc3ccccc3)C2)o1 (stereo not drawn)
  13	5
- CC(C)c1nc(CN2CCC(CNC(=O)C(C)(C)C)CC2)co1
  0	-5
- COc1ccc(NC(=O)NCC(O)c2ccc(F)cc2F)c(OC)c1 (stereo not drawn)
  5	-1
- CCOC(=O)C1(C)CCCCCN1C(=O)c1csnn1 (stereo not drawn)
  0	-4
- CN(C)CCNS(=O)(=O)c1ccc(NC2CCCC2)c([N+](=O)[O-])c1
  0	1
- O=c1c2nn(Cc3ccc(F)cc3)c(=O)n2ccn1-c1ccc(Br)cc1
  7	6
- Cc1n[nH]c(C)c1CCC(=O)N(C)Cc1cn[nH]c1-c1ccc(F)cc1
  -1	-4
- Nc1nnc(COc2ccccc2Cl)s1
  3	-3
- NC(=O)c1c(NC(=O)c2cc3c(s2)CCCCC3)sc2c1CCC2
  -7	-11
- O=C1CSC(c2ccc(F)cc2F)N1CC(O)c1ccccc1 (stereo not drawn)
  19	16
- NC(=O)c1cc(NC(=O)CSc2nc3ccccc3s2)cc(C(N)=O)c1
  15	12
- CC(=O)N1c2ccc(S(=O)(=O)N3CCC(NC(=O)c4ccncc4)CC3)cc2CC1C (stereo not drawn)
  -5	-6
- COCCCN(CC(=O)N(CCc1ccc(OC)c(OC)c1)Cc1sccc1C)S(=O)(=O)c1ccc(Cl)cc1
  -11	-13
- O=C(CSc1nc2ccccc2[nH]1)N/N=C\c1cc(Br)ccc1O
  7	6
- CN(C)c1nc2c(c(=O)n(C)c(=O)n2C)n1CCSc1nc2ccccc2s1
  19	10
- COc1ccc(-c2cnc(-c3ccc(CNC(=O)c4c(C(C)C)cc(C(C)C)cc4C(C)C)cc3)[nH]2)cc1
  3	3

Reformatted: 4 of the compounds above.
NC(=O)c1c(NC(=O)c2cc3c(s2)CCCCC3)sc2c1CCC2
  NPYLR7 agonist: -7
  NPYLR7 agonist max-min: -11

O=C1CSC(c2ccc(F)cc2F)N1CC(O)c1ccccc1 (stereo not drawn)
  NPYLR7 agonist: 19
  NPYLR7 agonist max-min: 16

NC(=O)c1cc(NC(=O)CSc2nc3ccccc3s2)cc(C(N)=O)c1
  NPYLR7 agonist: 15
  NPYLR7 agonist max-min: 12

CC(=O)N1c2ccc(S(=O)(=O)N3CCC(NC(=O)c4ccncc4)CC3)cc2CC1C (stereo not drawn)
  NPYLR7 agonist: -5
  NPYLR7 agonist max-min: -6

Further results follow:
Sequence of screens – NPYLR7 agonist	NPYLR7 agonist max-min
- O=[N+]([O-])c1c(N2CCc3ccccc3C2)n[nH]c1-c1nnco1
  5	-1
- Cc1oc(-c2cccc(C(F)(F)F)c2)nc1CN1CCS(=O)(=O)CC1
  -3	-11
- CCCCn1c(N)c(N(Cc2ccco2)C(=O)CC)c(=O)[nH]c1=O
  8	15
- COC(=O)c1cc(CNC(=O)C23CC4CC(CC(C4)C2)C3)cc(NC(=O)Cc2ccsc2)c1
  16	1
- CC(C)C(=O)N1N=C(c2ccc(Cl)cc2)CC1c1ccc2nccnc2c1 (stereo not drawn)
  3	1
- CC1=CC(C)C2(COC(c3ccc[n+](C)c3)OC2)C(C)C1 (stereo not drawn)
  7	6
- CC(=O)Nc1ccc(F)c(NCc2ncc(-c3ccc(Cl)cc3)o2)c1
  -4	-5
- CCS(=O)(=O)c1cccc(C(=O)N(CCN(C)C)c2nc3c(F)cc(F)cc3s2)c1
  -1	-5
- COc1cc(CNc2ccc3ncc(-c4ccc5[nH]ccc5c4)n3n2)cc(OC)c1OC
  2	0
- CC1(C)O[C@@H]2C[C@H]3[C@@H]4C[C@H](F)C5=CC(=O)CC[C@]5(C)[C@H]4[C@@H](O)C[C@]3(C)[C@]2(C(=O)CO)O1
  -2	-8
- CCCCc1cnc2c(c1SCc1ccc(C(=O)OC)o1)c(=O)n(C)c(=O)n2C
  2	6
- COc1ccccc1N1C(=O)CSC1c1ccccc1N (stereo not drawn)
  -1	2
- c1ccc(C(c2ccccc2)N2CCN(c3ccc4nnnn4n3)CC2)cc1
  -2	-4
- CC1OC(Nc2ccc(Br)cc2)C(O)C(O)C1O (stereo not drawn)
  1	-1
- COC(=O)c1ccc(NC(=O)CSc2ccc(-c3sc(-c4cccs4)nc3C)nn2)cc1
  12	1
- Cc1ccc(C2CC(c3cccs3)=NN2C(=O)Cn2cnc3c(cnn3CCO)c2=O)cc1 (stereo not drawn)
  0	-4
- COc1ccc(-c2onc(C)c2C(=O)NCCF)cc1
  -1	8
- CCc1cc(N(C)C(C)c2cccc(O)c2)nc(-c2ccccn2)n1 (stereo not drawn)
  -1	-5
- Cc1nc(S(=O)(=O)N2CCCCC2c2cccc(F)c2)cn1C (stereo not drawn)
  -4	-10
- Cc1nc(NCCNC(=O)c2ccc(F)cc2Cl)cc(N2CCCC2)n1
  0	-1

Other structures.
Sequence of screens – NPYLR7 agonist	NPYLR7 agonist max-min
- Fc1ccc(CN(Cc2ccncc2)Cc2cccc3c2OCO3)cc1
  4	0
- O=C(Nc1nccs1)c1c[nH]c2c(C(F)(F)F)cccc2c1=O
  5	3
- CC1Cc2nc(SCC(=O)Nc3cccc4ccccc34)n(C)c(=O)c2S1 (stereo not drawn)
  0	-4
- O=C(c1cnn2ccccc12)N1CCCC(CCc2cccc(C(F)(F)F)c2)C1 (stereo not drawn)
  0	0
- Cc1ccc(CN2CCN(c3nc4c(c(=O)[nH]c(=O)n4C)n3Cc3cc(C)ccc3C)CC2)cc1
  0	-2
- COC(=O)COC1C[C@](OCc2ccc(F)cc2)(C(=O)NCC2CCCO2)C[C@H]2OC(C)(C)O[C@@H]12 (stereo partly drawn)
  2	5
- COc1ccc2nc(C)cc(SCC(NC(C)=O)C(=O)OC(C)C)c2c1 (stereo not drawn)
  5	5
- O=C(Nc1c[nH]c2ccccc12)N1CCCC1
  1	-3
- COCCNC(=O)C1(C)CCCN(Cc2ccc(OC)cc2)C1 (stereo not drawn)
  8	5
- Cc1oc(-c2ccc(F)cc2F)nc1CN(C)Cc1ccccc1C(F)(F)F
  7	9
- COCCCN1COc2ccc3c(c2C1)O/C(=C\c1ccccc1)C3=O
  30	26
- CCc1noc(C)c1C(=O)N1CCC(CCC(=O)Nc2ccc(F)c(Cl)c2)CC1
  24	11
- Cc1cc([N+](=O)[O-])cc[n+]1[O-]
  2	-1
- Cc1cc(C)c(C#N)c(SC(C)C(=O)Nc2cccc(S(=O)(=O)N(C)C)c2)n1 (stereo not drawn)
  14	13
- COC(=O)c1csc(NC(=O)N(C)C(C)c2ccco2)c1 (stereo not drawn)
  2	2
- CS(=O)c1ccccc1C(=O)OCc1c(Cl)cccc1Cl (stereo not drawn)
  25	25
- COCC(=O)Nc1ccc(N(C)C)c(CN(Cc2cccc(F)c2)C(=O)C2CC2)c1
  0	12
- Cc1cc(CNCc2ccc(CN(C)C)cc2)c(C)n1CC(C)C
  -2	-5
- CC1CN(c2cc(Cl)nc(SCC(=O)NC(Cc3ccccc3)c3ccccc3)n2)CCN1C(=O)c1ccccc1F (stereo not drawn)
  1	16
- COc1ccc(C2=NN(C(C)=O)C(c3cccc(OC)c3)C2)cc1 (stereo not drawn)
  -9	-15

2 compounds drawn at random from those above:
Sequence of screens – NPYLR7 agonist	NPYLR7 agonist max-min
- COc1ccc2nc(C)cc(SCC(NC(C)=O)C(=O)OC(C)C)c2c1 (stereo not drawn)
  5	5
- NC(=O)c1c(NC(=O)c2cc3c(s2)CCCCC3)sc2c1CCC2
  -7	-11

More entries follow:
Sequence of screens – NPYLR7 agonist	NPYLR7 agonist max-min
- CC(C)CNC(=O)[C@@]1(OCc2ccc(F)cc2)CC(OCc2ccc(C(F)(F)F)cc2)[C@H](O)[C@H](O)C1 (stereo partly drawn)
  4	15
- COc1cc(NC(=O)N2CCCCCC2)cc(OC)c1
  1	0
- COc1cccc(C(=O)NC2CCN(c3ccccc3C(=O)NCc3cccnc3)CC2)c1
  23	24
- Cc1ccc(-c2ccnc(N3CCc4nnc(C(C)C)n4CC3)n2)c(C)n1
  4	-1
- CC(C)c1ccc(C2=NC(C)(CC(=O)N(C)CCN(C)C)ON2C)cc1 (stereo not drawn)
  8	3
- Cc1nn(-c2ccccc2)c(C)c1C1C(=O)NCCN1C(=O)C1CCCC1 (stereo not drawn)
  -7	-8
- CC(N(C)C)C12CC3CC(CC(C3)C1)C2 (stereo not drawn)
  -6	-9
- CCOC(=O)C1CCN(C(=O)c2cc(C)n3nc(-c4ccccc4)cc3n2)CC1
  13	13

An excerpt. The share of hits here may be higher or lower than overall.
